Screening data as filed in PubChem BioAssay.
StopGo reporter = lowers the luciferase signal of an FMDV 2A StopGo reporter; human cells with a luciferase reporter of 2A StopGo recoding; control for the full effect not named in the record; Potency, µM (top dose mostly 57.9 µM), for the others: top-dose signal change, negative = less light; hit rate 1.2% among 410,000; AID 1159524; active = well fitted falling curve with a large enough effect; inconclusive = small, poorly fitted or top-dose-only effect; inactive = no such curve, though single readings can be large or run the other way; tested in HEK293T cells; further: on the % scale 0 is the no-effect control and ±100 the full control effect; nearly all actives have a fitted effect of over 45% in size; luciferase light after 4 h
Marburg entry inh = inhibitors of Marburg virus binding or cell entry. Marburg virus pseudotyped entry inhibition, cell reporter; control for the full effect not named in the record; about a third of the inactives were read at about 46 µM. Potency, µM (titrated, usually from 37.8 µM), without a hit: top-dose activity change, negative = inhibition, most hits filed as inhibitors. hit rate 1.8% among 300,000. AID 540276; active = well fitted inhibition curve with a large enough effect; inconclusive = small, poorly fitted or top-dose-only effect, or effect the other way; inactive = flat fitted curve, though single readings scatter; tested in HEK293 cells; about a fifth of its hits are not listed in these tables; further: on the % scale 0 is the no-effect control and ±100 the full control effect; luciferase read-out
SARS PLpro yeast = blocks SARS-CoV papain-like protease in a yeast assay; Potency, µM (doses to about 32.9 µM), for the others: at the top dose activity, positive = growth rescue; S. cerevisiae expressing SARS-CoV PLpro, growth rescue; control for the full effect not named in the record; hit rate 0.19% among 330,000; further: 0% is about no effect; nearly all actives have a fitted effect of over 55% in size; growth read by luminescence after 48 h
Lassa entry inh = blocks Lassa virus binding to or entry into cells; AID 540256; Lassa virus pseudotype entry inhibition, cell reporter; control for the full effect not named in the record; Potency, µM (top dose mostly 37.9 µM), without a hit: at the top dose activity change, negative = inhibition, most hits filed as inhibitors; hit rate 1.2% among 300,000; active means well fitted inhibition curve with a large enough effect; inconclusive means small, poorly fitted or top-dose-only effect, or effect the other way; inactive means flat fitted curve, though single readings scatter; tested in HEK293 cells; further: on the % scale 0 is the no-effect control and ±100 the full control effect; nearly all actives have a fitted effect of over 50% in size; luciferase read-out
NS1 inh = influenza NS1 inhibition. S. cerevisiae slowed by influenza A NS1, growth recovery by OD600. Potency, µM (top dose mostly 46.1 µM), for inactives: at the highest dose activity, positive = more growth. hit rate 0.4% among 270,000. AID 2326; further: actives are rising curves; nearly all actives have a fitted effect of over 50% in size
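Compounds were scored for reversing the slow growth caused by influenza A NS1 in S. cerevisiae, measured by optical density at 600 nm. Assay medium contained 2% galactose at pH 6.0; NS1-free yeast of the same strain were the positive control.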
Cruzain Triton = cruzain (T. cruzi) inhibition with detergent; purified cruzain, Z-FR-AMC fluorescence, 0.01% Triton; Potency, µM, inactives show max response, negative = inhibition, actives largely listed as inhibitors; hit rate 0.43% among 200,000; P25779; AID 1478; active means well fitted curve in the direction sought with a large enough effect; inconclusive means small, poorly fitted or top-dose-only effect, or another doubt; inactive means no such curve, though single readings can be large; an effect the other way counts as inactive or inconclusive;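 further: plate controls were neutral wells for no effect and buffer without enzyme for full effect; nearly all actives have a fitted effect of over 40% in size; top concentration of the series not given in the record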
Target sequence (P25779 123-467 limits assumed): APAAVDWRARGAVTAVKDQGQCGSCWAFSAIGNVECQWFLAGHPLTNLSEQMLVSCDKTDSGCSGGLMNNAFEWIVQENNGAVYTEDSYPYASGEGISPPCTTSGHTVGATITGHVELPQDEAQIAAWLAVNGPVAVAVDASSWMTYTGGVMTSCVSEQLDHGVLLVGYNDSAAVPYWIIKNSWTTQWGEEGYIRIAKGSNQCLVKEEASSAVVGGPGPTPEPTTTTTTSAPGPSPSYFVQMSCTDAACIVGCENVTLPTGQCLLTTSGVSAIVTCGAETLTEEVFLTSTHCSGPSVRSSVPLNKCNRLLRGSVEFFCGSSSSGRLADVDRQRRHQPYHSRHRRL
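Steps: dispense cruzain (1.5 nM final) in acetate buffer pH 5.5 with DTT and 0.01% Triton X-100; pin-transfer compounds; incubate 15 min RT; add Z-FR-AMC (2 uM final); read fluorescence every 30 s, using the 60 s intensity change.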
Cruzain inh noDet = inhibitors of Trypanosoma cruzi cruzain without detergent; P25779; purified cruzain, Z-FR-AMC fluorescence, no detergent; Potency, µM, for the others: max response, negative = inhibition, actives largely listed as inhibitors; hit rate 2.3% among 200,000; active means well fitted curve in the direction sought with a large enough effect; inconclusive means small, poorly fitted or top-dose-only effect, or another doubt; inactive means no such curve, though single readings can be large; an effect the other way counts as inactive or inconclusive;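 further: plate controls were enzyme without inhibitor for no effect and buffer without enzyme for full effect; nearly all actives have a fitted effect of over 40% in size; top concentration of the series not given in the record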
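Purified cruzain at 1.5 nM, pre-incubated 15 min with compound at room temperature in 100 mM sodium acetate pH 5.5, 5 mM DTT, 0.00005% Triton X-100. Reaction started with 2 uM Z-FR-AMC; AMC fluorescence increase over 60 s gives rate.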
RE007 growth inh = less growth of the S. pombe RE007 Vpr strain; AID 651644; Potency, µM (doses to about 92.2 µM), without a hit: at the top dose activity change, negative = less growth; S. pombe RE007 Vpr strain, BacTiter-Glo ATP luminescence, 24 h; control for the full effect not named in the record; hit rate 0.21% among 360,000; active = well fitted falling curve with a large enough effect; inconclusive = small, poorly fitted or top-dose-only effect; inactive = no such curve, though single readings can be large or run the other way;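 further: on the % scale 0 is the no-effect control and ±100 the full control effect; nearly all actives have a fitted effect of over 50% in size; the assay follows cell death caused by Vpr and the record does not say whether a fall means rescue or toxicity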
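Fission yeast RE007 carrying one integrated HIV-1 vpr copy, seeded at OD 0.01 in PMG+AL medium with 23 nL pinned compound. Grown 24 h at 30 degrees; viability read by BacTiter-Glo luminescence after 5 min.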
The depositor's hits bear a star; & = joins results of further samples; [ ] = dose if it differs, or a comment. Unless noted, the call rests on the fitted dose curve; in most records, active means well fitted rising curve with a large enough effect; inconclusive means small, poorly fitted or top-dose-only effect; inactive means no such curve, though single readings can be large or run the other way. Potency means the concentration at half of the fitted maximal effect.

`Cc1ccnc(NS(=O)(=O)c2ccc(NS(=O)(=O)c3ccc(Br)cc3)cc2)n1` gave StopGo reporter 18%, SARS PLpro yeast 10%, NS1 inh 8% and RE007 growth inh -3%.
For CC(C)C[C@H](NC(=O)[C@H](Cc1ccccc1)n1c(=O)[nH]c2ccccc2c1=O)C(=O)N1CCC(C(=O)O)CC1 the results were StopGo reporter -5%, SARS PLpro yeast 0%, NS1 inh 19% and RE007 growth inh 11%.
`CC(=O)Nc1ccc(NC(=O)COC(=O)Cc2cccs2)cc1` gave StopGo reporter 15%, Marburg entry inh 9%, SARS PLpro yeast 2%, Lassa entry inh 21%, NS1 inh 1%, Cruzain Triton -0.7%, Cruzain inh noDet 1% and RE007 growth inh -27%.
For CN1CCN(c2ccc(C=O)cc2)CC1 the results were StopGo reporter 23%, Marburg entry inh 0%[46.1 µM], SARS PLpro yeast 1%, Lassa entry inh 3%, NS1 inh 0%, Cruzain Triton -4.9%, Cruzain inh noDet 4% and RE007 growth inh -1%.
COC(=O)CC[C@@H](C(=O)O)N1C(=O)c2ccccc2C1=O was read as StopGo reporter 13%, Marburg entry inh 11%, SARS PLpro yeast 0%, Lassa entry inh inconclusive, NS1 inh -1%, Cruzain Triton 1.4%, Cruzain inh noDet -8% and RE007 growth inh 13%.
O=C(c1ccc(Br)cc1)N1CCC(C(=O)N2CCN(Cc3ccccc3)CC2)CC1 was read as StopGo reporter 3%, Marburg entry inh 14%, SARS PLpro yeast 1%, Lassa entry inh -8%, NS1 inh -8% and RE007 growth inh -7%.
For Brc1ccc2c(c1)CN1CCCC1=N2 the results were StopGo reporter -25%, Marburg entry inh -3%, SARS PLpro yeast 2%, NS1 inh 2% and RE007 growth inh -16%.
Screening COc1ccc(S(=O)(=O)N2CCOC23CCN(S(=O)(=O)c2cccs2)CC3)cc1 returned StopGo reporter 16%, Marburg entry inh inconclusive, SARS PLpro yeast 0%, Lassa entry inh inconclusive and RE007 growth inh 14%.
For Cc1nnc(N(C(=O)c2cnccn2)c2ccccc2)s1 the results were StopGo reporter 11%, Marburg entry inh 6%, SARS PLpro yeast -2%, Lassa entry inh 8%, NS1 inh -2%, Cruzain Triton 2.4%, Cruzain inh noDet -5% and RE007 growth inh -14%.
For CCOC(=O)c1c(C)oc2cc(Br)c(OCC(N)=O)cc12 the results were StopGo reporter 1%, Marburg entry inh -3%, SARS PLpro yeast -5%, Lassa entry inh 10%, NS1 inh 5%, Cruzain Triton 0.9%, Cruzain inh noDet -4% and RE007 growth inh -26%.
For Cn1c(NC(=O)Cc2cccs2)cc(=O)n(C)c1=O the results were StopGo reporter -13%, SARS PLpro yeast -14%, NS1 inh -3%, Cruzain Triton 3.6%, Cruzain inh noDet -9% and RE007 growth inh -9%.
`Cc1ccc(CN(C(=O)COc2ccc(C)c(C)c2)C2CCS(=O)(=O)C2)o1` (stereo not given) gave StopGo reporter -21%&-11%, Marburg entry inh 1%[46.1 µM], SARS PLpro yeast 9%, Lassa entry inh -8%[46.1 µM], NS1 inh -5%, Cruzain Triton -4.8%, Cruzain inh noDet inconclusive and RE007 growth inh -2%.
Screening O=C(Nc1cnn(Cc2ccc(Cl)cc2)c1)c1cnccn1 returned StopGo reporter -4%, Marburg entry inh 11%, SARS PLpro yeast 2%, Lassa entry inh 3%, NS1 inh -1%, Cruzain Triton -3.3%, Cruzain inh noDet -5% and RE007 growth inh 6%.
CC1CCCCN1CCNC(=O)CC1Oc2ccccc2NC1=O (stereo not given) was read as StopGo reporter -11%, SARS PLpro yeast -8%, NS1 inh -54%, Cruzain Triton 1.1%, Cruzain inh noDet -4% and RE007 growth inh 5%.
COc1cccc(CNS(=O)(=O)c2ccc(N3CCCCS3(=O)=O)cc2)c1 was read as StopGo reporter -29%, Lassa entry inh -25%[46.1 µM], Cruzain Triton 2.8% and Cruzain inh noDet -1%.
O=C(CSc1nc(-c2ccco2)cc(C(F)(F)F)n1)NN1CCOCC1 was read as StopGo reporter -7%, Marburg entry inh -18%[46.1 µM], SARS PLpro yeast 0%, Lassa entry inh -5%, NS1 inh 5% and RE007 growth inh 11%.
For COc1ccc(Cn2c(O)c(/C=N/NC(=O)c3ccccc3)c(=O)[nH]c2=O)cc1 the results were StopGo reporter -17%, SARS PLpro yeast 10µM*, NS1 inh 28%, Cruzain Triton 7.6%, Cruzain inh noDet -3% and RE007 growth inh 25%.
Screening COC(=O)NCc1cccc(CNC(=O)OC)c1 returned StopGo reporter 0%, Marburg entry inh -1%, SARS PLpro yeast -7%, Lassa entry inh -17%, NS1 inh -8%, Cruzain Triton 1.1%, Cruzain inh noDet -2% and RE007 growth inh -7%.
For COc1cccc(NC(=O)C2CCCN2C(=O)NC2CCCCC2)c1 (stereo not given) the results were StopGo reporter 5%, Marburg entry inh 21%[46.1 µM], SARS PLpro yeast 0%, NS1 inh 6% and RE007 growth inh -15%.
Screening COCCCNC(=O)C(C#N)c1nc2ccccc2nc1N1CCCC1 (stereo not given) returned StopGo reporter -18%, Marburg entry inh -16%, SARS PLpro yeast 5%, Lassa entry inh 12%, NS1 inh 3%, Cruzain Triton -6.3%, Cruzain inh noDet inconclusive and RE007 growth inh -8%.
For Cc1ccc2sc(NNC(=O)C3COc4ccccc4O3)nc2c1C (stereo not given) the results were StopGo reporter -22%, Marburg entry inh 2%, SARS PLpro yeast -56%, Lassa entry inh 4%, NS1 inh -51%, Cruzain Triton -4.9%, Cruzain inh noDet 8% and RE007 growth inh -16%.
Screening COc1ccc(-n2c(=O)/c(=C\c3cccs3)s/c2=C(/C#N)C(=O)NCCN2CCOCC2)cc1 returned StopGo reporter -5%, Marburg entry inh 2%[46.1 µM], SARS PLpro yeast -1%, Lassa entry inh -21%, NS1 inh 3% and RE007 growth inh -5%.
Cc1c(CCC(=O)NCCCC(=O)O)c(=O)oc2cc3oc4c(c3cc12)CCCC4 was read as StopGo reporter -22%, SARS PLpro yeast 1%, NS1 inh 10% and RE007 growth inh 2%.
For COC(=O)c1cccc(NC(=O)Cc2ccccc2[N+](=O)[O-])c1C the results were StopGo reporter 10%, Marburg entry inh 6%, SARS PLpro yeast 4%, Lassa entry inh 1%, NS1 inh 20%, Cruzain Triton 6.4%, Cruzain inh noDet -14% and RE007 growth inh 2%.
Screening CC(C)C1Cc2c(C#N)c(N)sc(=S)c2CO1 (stereo not given) returned StopGo reporter -27%, Marburg entry inh 1%, SARS PLpro yeast 3%, Lassa entry inh 15%, NS1 inh 7%, Cruzain Triton -7.3%, Cruzain inh noDet -1% and RE007 growth inh -1%.
For O=C(CSc1nc2ccc([N+](=O)[O-])cc2s1)NCC1CCCO1 (stereo not given) the results were StopGo reporter -5%, Marburg entry inh 1%, SARS PLpro yeast 1%, Lassa entry inh -21%, NS1 inh -10% and RE007 growth inh 36%.
COC(=O)Cn1ccc2cc(S(=O)(=O)N3CCCCC3)ccc21 was read as StopGo reporter -8%&-23%, Marburg entry inh 7%&7%[46.1 µM], SARS PLpro yeast -1%, Lassa entry inh 19%[46.1 µM], NS1 inh 3%, Cruzain Triton -3.8%, Cruzain inh noDet -1% and RE007 growth inh 1%.
O=C(Cc1ccccc1)Nc1cccc(N2C(=O)C=CC2=O)c1 was read as StopGo reporter inconclusive, Marburg entry inh inconclusive, SARS PLpro yeast -79%, Lassa entry inh -17%, NS1 inh -24%, Cruzain Triton -2.6%, Cruzain inh noDet 20% and RE007 growth inh -18%.
`Cc1cc(=O)oc2cc(Oc3ccc([N+](=O)[O-])cc3[N+](=O)[O-])ccc12` gave StopGo reporter 35µM*, Marburg entry inh inconclusive, SARS PLpro yeast -29%, Lassa entry inh -26%, NS1 inh 2%, Cruzain Triton -7.4%, Cruzain inh noDet -15% and RE007 growth inh 0%.
CN1C(=O)C(Cc2cccc3ccccc23)C(=O)N(C)C1=O was read as StopGo reporter -11%, Marburg entry inh 5%, SARS PLpro yeast 0%, Lassa entry inh 2%, NS1 inh 3%, Cruzain Triton 5.0%, Cruzain inh noDet 5% and RE007 growth inh -13%.
Screening O=C(c1ccncc1)N1CCN(c2cccc(C(F)(F)F)c2)CC1 returned StopGo reporter -2%, Marburg entry inh -28%, SARS PLpro yeast 2%, Lassa entry inh -21%, NS1 inh -1%, Cruzain Triton 1.4%, Cruzain inh noDet 1% and RE007 growth inh -6%.
Screening CCc1ccc2[nH]c3nc(N/N=C/c4cccc(O)c4)nnc3c2c1 returned StopGo reporter 3%, Marburg entry inh inconclusive, SARS PLpro yeast inconclusive, Lassa entry inh 0%, NS1 inh 2% and RE007 growth inh 4%.
CCOC(=O)c1ccc(NC(=O)c2cc(OC)c(OC)c(OC)c2Br)cc1 was read as StopGo reporter 0%, Marburg entry inh 13%, SARS PLpro yeast -4%, Lassa entry inh -19%, NS1 inh -13%, Cruzain Triton -3.6%, Cruzain inh noDet 5% and RE007 growth inh -12%.
Screening COc1ccc(S(=O)(=O)Nc2cc(C)c(O)c(S(=O)(=O)c3ccccc3)c2)cc1 returned StopGo reporter 55%[activator], Marburg entry inh inconclusive, SARS PLpro yeast -2%, Lassa entry inh 7%, NS1 inh -31%, Cruzain Triton -6.2%, Cruzain inh noDet -7% and RE007 growth inh -15%.
For Cc1ccc2nc(NC(=O)CSCC(=O)OCC(=O)c3ccc(Br)cc3)sc2c1 the results were StopGo reporter 7.9µM*, Marburg entry inh 3.2µM*, SARS PLpro yeast -1%, Lassa entry inh 7.9µM*, NS1 inh 13%, Cruzain Triton -3.1%, Cruzain inh noDet inconclusive and RE007 growth inh 4%.

Two records picked at random from the list so far, as already listed:
For Cn1c(NC(=O)Cc2cccs2)cc(=O)n(C)c1=O the results were StopGo reporter -13%, SARS PLpro yeast -14%, NS1 inh -3%, Cruzain Triton 3.6%, Cruzain inh noDet -9% and RE007 growth inh -9%.
CCOC(=O)c1ccc(NC(=O)c2cc(OC)c(OC)c(OC)c2Br)cc1 was read as StopGo reporter 0%, Marburg entry inh 13%, SARS PLpro yeast -4%, Lassa entry inh -19%, NS1 inh -13%, Cruzain Triton -3.6%, Cruzain inh noDet 5% and RE007 growth inh -12%.
